GLA inh pH 4.5 – qHTS Assay for Inhibitors of Human alpha-Galactosidase at pH 4.5; Alpha-galactosidase A (Homo sapiens), P06280; 230,000 tested, under 10 active; purified enzyme, 4-MU-alpha-Gal fluorescence, pH 4.5; activity change, negative = inhibition, % at 105 µM; inconclusive = small, poorly fitted or top-dose-only inhibition, or a rising curve; inactive = flat fitted curve, though single readings scatter; no compound was filed as active;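 also: 0% = full activity with enzyme and -100% = basal without enzyme; dose as in the result columns while the protocol names 77 µM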
Target sequence (P06280 whole entry, looked up): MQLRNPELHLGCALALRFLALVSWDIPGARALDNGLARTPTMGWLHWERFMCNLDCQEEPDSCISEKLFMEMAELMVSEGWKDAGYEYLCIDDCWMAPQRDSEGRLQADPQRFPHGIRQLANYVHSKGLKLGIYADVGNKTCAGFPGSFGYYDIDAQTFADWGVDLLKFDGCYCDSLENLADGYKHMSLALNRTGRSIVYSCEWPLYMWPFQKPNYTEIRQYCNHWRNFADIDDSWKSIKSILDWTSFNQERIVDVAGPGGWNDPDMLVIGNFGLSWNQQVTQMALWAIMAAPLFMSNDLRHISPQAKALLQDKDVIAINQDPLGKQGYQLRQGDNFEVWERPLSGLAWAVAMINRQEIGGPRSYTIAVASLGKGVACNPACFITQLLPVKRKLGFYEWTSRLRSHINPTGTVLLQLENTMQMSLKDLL
Rango release inh – qHTS Assay for Inhibitors of RanGTP induced Rango (Ran-regulated importin-beta cargo) - Importin beta complex dissociation; Potency, µM (highest dose often 46.1 µM), without a hit: top-dose activity change, negative = inhibition; Snurportin-1 (Homo sapiens) + GTP-binding nuclear protein Ran (Homo sapiens) + Importin …; hit rate 0.071% among 340,000; Biochemical FRET Rango-importin beta, RanGTP-induced dissociation; active means falling FRET ratio curve, often poorly fitted, with flat reads before Ran was added; inconclusive means other falling curves, or compound fluorescence or quenching; inactive means flat or rising ratio curve;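 also: potency is read from the fitted curve at half-maximal effect; % of control where 0% means no effect; nearly all actives have a fitted effect of over 45% in size; -100% = wells without RanGTP and RCC1; the record marks most hits as doubtful in a second field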
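Two FRET readings bracket the reaction: one 5 min after compound meets Rango–importin beta, another 45 min after RanGTP-RCC1 (0.6 uM Ran, 0.2 uM RCC1, 2 mM GTP) is added. Only the second defines inhibition.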
Rango-impB inh – qHTS Assay for Inhibitors of Rango (Ran-regulated importin-beta cargo) - Importin beta complex formation. Rango CFP/YFP FRET sensor + importin beta, 45 min. Potency, µM (highest dose often 92.2 µM), for the others: at the top dose inhibition of complex formation. hit rate 0.031% among 340,000. AID 540263, 2011; active = rising FRET ratio curve, often small or poorly fitted; inconclusive = mostly compound fluorescence or quenching in the first reads; inactive = flat curves in all reads;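 also: potency is read from the fitted curve at half-maximal effect; 0% = DMSO wells and 100% = buffer wells lacking importin beta; nearly all actives have a fitted effect of over 15% in size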
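FRET biosensor Rango (snurportin 1 IBB between N-terminal EYFP and C-terminal Cerulean), 50 nM in PBS/1 mM DTT/0.02% Tween-20/0.1% BSA, preincubated 5 min RT with compound; 0.125 microM importin beta added, 45 min RT, CFP/YFP FRET ratio read.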
miR-21 FLuc – qHTS Assay for Modulators of miRNAs and/orActivators of miR-21 | HeLa miR-21 FLuc reporter, luciferase, 48 h | Potency, µM (series often up to 38.3 µM), for the others: top-dose reporter change, positive = more light | 340,000 tested, under 10 active; active = well fitted rising curve with a large enough effect; inconclusive = small, poorly fitted or top-dose-only effect; inactive = no such curve, though single readings can be large or run the other way;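 also: % of control where 0% means no effect; miR-21 action dims this reporter so a rising signal means less miR-21 action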
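HeLa cells endogenously expressing miR-21, stably carrying CMV-driven firefly luciferase with a downstream miR-21 binding site, 2000 cells/well. Titrations up to approximately 40 uM, 48 hours; luciferase luminescence read.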
* hit, by the source's call; ? = inconclusive; / = no result given; & = joins results of further samples. Not all compounds are listed, so the mix of outcomes need not match the whole.

Sample of the layout (two entries):
Order of values: GLA inh pH 4.5	miR-21 FLuc	Rango-impB inh	Rango release inh
- CN1CCN(c2ccc(S(=O)(=O)N3CCCCC3)cc2NC(=O)COc2cccc(Cl)c2)CC1
    /	/	1.1%	-2%
- COc1cc(NC(=O)Cn2cnc(S(=O)(=O)N3CCC(C)CC3)c2)cc(OC)c1OC
    /	0%	?	2%

This part in full, repeating the preview:
Order of values: GLA inh pH 4.5	miR-21 FLuc	Rango-impB inh	Rango release inh
- CN1CCN(c2ccc(S(=O)(=O)N3CCCCC3)cc2NC(=O)COc2cccc(Cl)c2)CC1
    /	/	1.1%	-2%
- COc1cc(NC(=O)Cn2cnc(S(=O)(=O)N3CCC(C)CC3)c2)cc(OC)c1OC
    /	0%	?	2%
- CN(C)S(=O)(=O)c1cccc(NC(=O)COc2cccc(C#N)c2)c1
    -5	-14%	-1.9%	-10%
- O=C1Nc2ccccc2N(O)N1c1cc(-c2ccc(Cl)cc2)[nH]n1
    -4	17%	-2.3%	7%
- CCc1nn(C(C)C(=O)NCCN2CCN(c3cccc(C)c3C)CC2)c(=O)c2cc3occc3n12 (configuration not stated)
    -13	23%	1.4%	25%
- CC1CCCC(C)N1C(=O)COC(=O)CSc1ccc(C(N)=O)cc1[N+](=O)[O-] (configuration not stated)
    /	/	4.1%	14%
- COc1cc(O)ccc1C=O
    -7	-13%	4.8%	38%
- COc1cc2cc(CN(CCCO)S(=O)(=O)c3ccccc3)c(=O)[nH]c2cc1OC
    17	-17%	-3.4%	9%
- COc1ccc(C(=O)CC2(C(=O)O)CCCCC2)cc1
    /	-3%	-0.2%	-1%
- NC1=NN=C(N2N=C(c3ccc(Br)cc3)CC2(O)C(F)(F)F)n2ncnc2C1 (configuration not stated)
    -1	3%	2.3%	7%
- Cc1nnc2sc(SCC(=O)N3CCCCC3)nn2c1=O
    /	1%	0.7%	2%
- COCCn1c(SCc2cccc(F)c2)nc2cc(C(=O)OC)ccc2c1=O
    /	0%	4.3%	6%
- COc1ccccc1/C=C/C(=O)NCC(=O)N/N=C/c1ccccc1[N+](=O)[O-]
    -2	-1%	0.3%	-21%
- O=C(Nc1ccncc1)C1COc2ccccc2O1 (configuration not stated)
    -4	1%	-0.5%	3%
- COc1ccc(NS(=O)(=O)c2ccc(NC(=O)Cc3cccs3)cc2)cc1
    1	-6%	-2.0%	-13%
- O=C(CN(c1ccccc1)S(=O)(=O)c1ccc(Cl)cc1)Nc1ccccc1C(=O)N1CCCC1
    2	2%	0.7%	?
- CCn1c(=O)cc(OCC(=O)NCCc2ccc(OC)c(OC)c2)c2ccccc21
    -27	3%	0.5%	7%
- CC(C)c1nc(SCC(=O)N2CCCC2)c2ccccc2n1
    -7	-2%	9.0%	10%
- COc1ccc(OC)c(NC(=O)c2ccc(N3C(=O)C4CC=C(C)CC4C3=O)cc2)c1 (configuration not stated)
    /	-6%	-0.9%	1%
- CCCNC(=O)COC(=O)c1n[nH]c2ccccc12
    -18	-8%	-2.0%	5%
- CCOc1ccc(-n2ccnc(SCC(=O)Nc3ccc(CC)cc3)c2=O)cc1
    /	/	-0.3%	13%
- Cc1ccc(CCC(=O)Nc2ccc(S(N)(=O)=O)cc2)o1
    -3	-1%	4.2%	-29%
- CC(C)NC(=O)CSc1nc(Cc2cccs2)nc2ccccc12
    6	-1%	5.4%	-11%
- Cc1cccc(OCc2nnc(SCc3cc(=O)[nH]c4ccccc34)n2-c2ccccc2)c1
    1	6%	0.6%	7%
- COc1ccc(-c2cc(C(F)(F)F)nc(N3CCN(Cc4ccccc4)CC3)n2)cc1OC
    2	1%	1.5%	-12%
- Cc1nn(C(=O)N(C)C)c(C)c1CN1C(=O)c2ccccc2C1=O
    /	5%	9.0%	-20%
- COc1cc(C(CC(=O)Nc2ncccc2C)N2Cc3ccccc3C2=O)cc(OC)c1OC (configuration not stated)
    /	-2%&-3%	-0.6%	-4%
- CCn1c2ccccc2c2cc(NC(=O)CSc3nnc(C4CC4)n3Cc3ccco3)ccc21
    -7	3%	-0.7%	-11%
- Cc1ccc([N+](=O)[O-])cc1NC(=O)c1ccc(CSc2ccccc2)cc1
    0	2%	1.0%	4%
- COc1ccc(-c2nnc3ccc(SCC(=O)N4CCOCC4)nn23)cc1
    0	-1%	0.1%	2%
- Nc1cc(S(=O)(=O)Nc2ccccc2Cl)ccc1N1CCOCC1
    -1	-13%	2.3%	-10%
- Nc1nonc1C(=O)NC(c1ccccc1)c1ccccc1
    0	-6%	-0.6%	-2%
- CCCCNC(=S)N=Nc1c(O)n(Cc2ccccc2)c2ccccc12
    -1	-8%	2.7%	?
- CC(C)(C)c1ccc(/C=N/OCC(=O)NCc2ccc(F)cc2)cc1
    -5	19%	1.9%	21%
- O=P(c1ccccc1)(c1ccccc1)C(O)c1ccncc1 (configuration not stated)
    -7	-1%	4.0%	-4%
- NS(=O)(=O)c1ccc(CCNC(=O)c2cc(-c3cccs3)nc3ccccc23)cc1
    3	6%	1.4%	-10%
- O=C(Nc1ccccc1C(F)(F)F)N1CCCCCC1
    1	-6%	-1.3%	-6%
- O=c1c2ccccc2nc(-c2ccco2)n1-c1nc2ccccc2s1
    -5	-14%	?	3%
- CS(=O)(=O)NN1C(=O)c2ccccc2NC1c1ccccc1F (configuration not stated)
    /	5%	-1.5%	1%
- COc1ccc(NC(=O)COC(=O)CCCOc2ccc(Cl)cc2Cl)cc1
    -9	16%	-1.6%	3%
- COc1ccccc1CC(=O)Nc1ccc(Cl)cc1C(=O)O
    -3	-1%	3.0%	-2%
- O=C(O)c1cccc(Nc2ccc([N+](=O)[O-])cn2)c1
    /	-8%	0.7%	-11%
- Cc1ccc(NC(=O)Nc2ccon2)cc1
    /	-37%	0.6%	-4%
- CCOc1ccccc1N1CCN(C(=O)c2ccc3nc(N)sc3c2)CC1
    /	/	2.7%	-7%
- CCc1noc(C)c1C(=O)N1CCN(S(=O)(=O)c2ccc(C)cc2C)CC1
    /	/	4.2%	10%
- CCC(=O)Nc1cc(C)c(NC(=O)c2ccccc2OC)cn1
    0	-11%	-4.5%	-2%
- COc1ccccc1CNS(=O)(=O)c1c(C)nc2scc(C)n2c1=O
    /	0%&3%	-1.6%	1%
- Cc1ccccc1C(=O)N1CCC(C(=O)Nc2ccc(S(=O)(=O)N(C)C(C)C)cc2)CC1
    0	20%	-0.9%	-8%
- CC(=O)Nc1cccc(NC(=O)CSc2nc(=O)n(Cc3ccncc3)c3c2CCC3)c1
    /	/	-4.0%	-11%
- COc1ccc(N=Nc2cc(OC)c(N)cc2OC)cc1
    /	/	0.3%	14%
- C=CCNC(=O)N[C@@H](CCSC)C(=O)OC
    13	-2%	-2.3%	9%
- CC(=O)Nc1ccc(NC(=O)C(C)Sc2nnc(-c3ccc4c(c3)OCO4)o2)cc1 (configuration not stated)
    /	/	1.2%	3%
- Cc1cccc(NC(=O)c2c(C)nc3ccccn23)c1
    -1	-46%	2.2%	2%
- COc1ccc(NC(=O)CNC(=O)C2CCCCC2)cc1OC
    /	/	-1.1%	-7%
- COC(=O)c1cc(S(=O)(=O)NCc2ccc3c(c2)OCO3)cn1C
    /	2%	5.3%	6%
- COc1ccc(/C=C2\SC(=S)N(CCCC(=O)N3CCN(C)CC3)C2=O)cc1OC
    /	/	-2.4%	-3%
- CN1C[C@@H]2[C@@H]3C(=O)N(Cc4ccccc4)C(=O)[C@@H]3[C@](C)(C1=O)N2C(=O)c1ccc(C(C)(C)C)cc1
    /	/	-1.0%	-10%
- Cn1ncc2c(Sc3ccc(Cl)cc3)ncnc21
    -4	-6%	-2.2%	19%
- CCc1noc(C)c1C(=O)N1CCCSC1=Nc1ccccc1C(C)C
    /	/	3.3%	16%
- COc1cc(-c2nnn(CC(=O)NCc3ccccc3)n2)cc(OC)c1OC
    6	6%&12%	0.6%	2%

New compounds follow:
Order of values: GLA inh pH 4.5	miR-21 FLuc	Rango-impB inh	Rango release inh
- CC(C)CN(CCNC(=O)c1cn(C)c2ccc(S(=O)(=O)N3CCCC3)cc2c1=O)CC(C)C
    /	1%&-1%	-0.8%	1%
- O=C(Nc1cccc(NC(=O)c2ccccc2[N+](=O)[O-])c1)c1ccccc1Cl
    /	-1%	-0.9%	5%
- CC(C)(C)NC(=O)c1cccc(NC(=O)c2cccc(O)c2)c1
    -3	-26%	-0.4%	2%
- N#Cc1ccc(Cl)cc1NC(=O)CSc1nc2nc(-c3cccs3)cc(C(F)(F)F)c2c(=O)[nH]1
    -13	-11%	/	/
- Cc1ncsc1CCC(=O)N1CCCC(Nc2ccc(C(C)C)cc2)C1 (configuration not stated)
    /	6%	-6.8%	-12%
- CCOC(=O)Cn1nc(C)c(NC(=O)CCc2ccccc2)c1C
    2	5%	-1.5%	5%
- CSc1cccc(NS(=O)(=O)c2ccc(F)cc2)c1
    0	-3%	2.7%	0%
- Cc1ccc(C(=O)NC2CCCCCC2)cc1S(=O)(=O)N1CCOCC1
    /	-26%	3.6%	20%
- CC1=NNC(=O)C1Cc1ccccc1 (configuration not stated)
    /	/	-2.2%	-2%
- CC(NC(=O)Nc1ccccc1)c1ccccc1 (configuration not stated)
    16	-1%	-0.7%	0%
- Cc1ccc(S(=O)(=O)CC(=O)N2CCCCCC2)cc1
    3	-19%	0.1%	-15%
- C/C(=N\NC(=O)c1cc(C)[nH]n1)C(C)(C)C
    -11	-19%	9.2%	-11%
- COc1ccc(-c2nc(NC3=NCCCCC3)sc2C)cc1
    1	-4%	-3.4%	12%
- Cc1cc(Oc2ccccc2)nc(SCC(=O)Nc2ccc(Cl)c(Cl)c2)n1
    -1	3%	0.5%	-12%
- COc1ccc(C(=O)c2ccc(N3CCN(C(=O)c4ccc(F)cc4)CC3)c(F)c2)cc1Br
    -3	5%	0.4%	-6%
- CC(=O)N1CCC(=NNC(=O)c2cccs2)CC1
    4	-89%	-1.4%	2%
- CC1CCN(C(=S)Nc2ccc(SC(F)F)cc2)CC1
    1	-33%	4.8%	9%
- C=CCC1NS(=O)(=O)OCC1C(C)C (configuration not stated)
    /	1%	-4.5%	-12%
- O=C(Nc1ccncc1)C1c2ccccc2Oc2ccccc21
    1	-15%	-2.3%	-4%
- Cc1nc(C)c(-c2ccc(SCC(=O)Nc3cccc(F)c3)nn2)s1
    /	7%	-2.5%	-12%
- CCOc1cc2c(cc1/C=C1/NC(=O)N(CC(=O)OC)C1=O)OCO2
    -4	-3%	?	?
- CCc1nnc(NC(=O)CSc2nnc(-c3c[nH]c4ccccc34)n2C)s1
    -6	-6%	?	-8%
- Nc1cc(=O)[nH]c(SCc2cccc3ccccc23)n1
    /	0%	-0.5%	19%
- O=C(N/N=C/c1cccnc1)c1cc2ccccc2o1
    -1	-8%	3.0%	-8%
- CN(Cc1ccccc1N1CCCC1)C(=O)c1cc2cc(Cl)ccc2o1
    /	/	-0.5%	-20%
- O=C(c1ccccc1F)N1CCN=C1SCc1cccnc1
    -3	-10%	3.7%	1%
- CCN(CC)CCC(c1ccc(OC)cc1)c1c(O)cc(OC)cc1OC (configuration not stated)
    4	-4%	-3.4%	1%
- CCOC(=O)c1cc(C(=O)NN)c(C)nc1C
    0	-2%	-2.2%	-6%
- O=C(COc1ccccc1)N(Cc1ccco1)c1ccc(O)cc1
    -1	-4%	-1.1%	1%
- Cc1ccc(S(=O)(=O)NC(=O)NCc2ccc3c(c2)OCO3)cc1
    3	-12%	-0.9%	-18%
